Screening results (PubChem)
YjeE inh = qHTS Assay for Inhibitors of YjeE; tRNA threonylcarbamoyladenosine biosynthesis protein TsaE (Escherichia coli (strain …; purified YjeE, fluorescence polarisation of a bound ADP probe; Potency, µM; 71,000 compounds, 0.05% hits; AID 605, 2007; active = well fitted falling curve; inconclusive = weaker or top-dose-only fall, or a rising curve; inactive = flat or poorly fitted curve;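 further: top concentration of the series not given in the record; excess ADP was the control for the full effect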
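Purified YjeE (10 uM) with BODIPY Texas Red-labeled ADP probe (2 uM); compounds pin-transferred, 15 min at room temperature. Binding inhibition read as decreased fluorescence polarization; ADP titration as control.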
PK Bst = Pyruvate Kinase; AID 361, 2006; partly purified Bacillus stearothermophilus pyruvate kinase, luminescence ATP production; ribose 5-phosphate activator present at AC10; Potency, µM; 51,000 compounds, 1.2% hits; in the data active means potency below about 11 µM; inconclusive means mostly about 12 µM to 25 µM; inactive means weaker than that;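 the screen sought inhibitors and activators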;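 further: potency means the concentration at half of the fitted maximal effect; scaled between full activation by ribose 5 phosphate and full inhibition by luteolin; about four in five hits inhibit and the cells do not say which; series up to 57 µM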
An asterisk follows results filed as active; i = inactive; x = not tested or not shown. Only part of the results is shown (hit frequency here may not be typical).

smiles	YjeE inh	PK Bst
CCOc1ccc(Cc2nnc(N)s2)cc1OCC	i	>57
COc1ncc2nc(C)c(=O)n(Cc3cccs3)c2n1	i	x
Cc1cccc(Br)c1	i	x
COc1ccc(CN(C#N)c2nc(SC)nc(N(C)C)n2)cc1	x	>26
Cc1cc(NC(=O)c2cc(S(=O)(=O)N3CCCCC3)ccc2C)n(-c2ccccn2)n1	i	>57
CCOC(=O)N1CCC(N2Cc3cccc(C(=O)N4CCN(C5CCCCC5)CC4)c3C2=O)CC1	i	x
Cc1n[nH]c(=S)n(/N=C/c2ccccn2)c1=O	i	x
O=C1Nc2ccccc2C1=Nc1ccc(S(=O)(=O)Nc2nccs2)cc1	i	x
Cc1ccc(C(=O)OCc2cc3ccccc3[nH]c2=O)cc1	i	>57
CCOC(=O)c1c(C)[nH]c(C(=O)COC(=O)C2CC(=O)N(Cc3ccccc3)C2)c1C (stereo not given)	i	>57
N#Cc1c(N)nc(SC2CCCCC2=O)c(C#N)c1-c1ccco1 (stereo not given)	i	x
COC(=O)c1cc(S(=O)(=O)NC2CCN(Cc3ccccc3)CC2)cn1C	i	>57
FC(F)(F)c1cc(CO[C@H]2CCCN[C@H]2c2ccccc2)cc(C(F)(F)F)c1	i	x
C=CCNC(=O)CNS(=O)(=O)c1ccc(F)cc1	i	>57
O=C(O)CSc1ccccc1C(=O)O	i	x
Clc1ccc2c(c1)c1ccccc1n2CN1CCOCC1	i	>57
c1ccc(CNc2ncncc2-c2ccc3c(c2)OCO3)cc1	i	x
CC(C)Sc1nc(-c2cccs2)nc2c1c(=O)n(C)c(=O)n2C	i	x
CCOC(=O)C1CCN(C(=O)Cc2c(C(=O)O)n(C)c3ccccc23)CC1	i	>57
COc1ccc2[nH]c(=O)c(CN(Cc3nnnn3CCc3ccccc3)CC3CCCO3)cc2c1 (stereo not given)	i	x
COC(=O)N1CCC[C@@]2(CCN(C(=O)Nc3ccc(OC)cc3)C2)C1	i	x
CCOCCCNC(=O)C1CCCN(S(=O)(=O)CC)C1 (stereo not given)	i	>57
N/C(=N\c1nc2ccccc2o1)NC(=O)c1ccccc1NC(=O)c1ccccc1	x	>26
O=C(CCc1nc(-c2ccc(Cl)cc2)no1)OCc1ccc(Br)cc1	i	>57
CCOc1cccc(C(=O)NC2CCCCC2)c1	i	>57
CN(c1ccccc1C(=O)Nc1ccc2c(c1)OCCO2)S(C)(=O)=O	i	>57
CCCn1cc2c(c1-c1cccc(C)c1)c(=O)n(C)c(=O)n2C	i	>57
O=S(=O)(Nc1ccccn1)c1ccc(C2CCCCC2)cc1	i	>57
COCCCNC(=O)c1cn(C)c(=O)c2cc(OC)c(OC)cc12	i	>57
Oc1c(Br)cc(CN(Cc2cc(Br)c(O)c(Br)c2)C2CCCCC2)cc1Br	i	x
O=C(CSc1nnc(Cc2ccccc2)o1)N1CCc2ccccc21	i	>57
CC1CCN(CCCNC(=O)c2cc3c(=O)n(C)c4ccccc4c3n2C)CC1	i	x
COc1ccccc1CNc1ncnc2ccc(-c3ccc4c(c3)OCO4)cc12	i	x
CC(C)(C)NCC(O)c1cc(O)cc(O)c1 (stereo not given)	x	>26
CCOC(=O)c1ccc(NC(=O)CSCc2ccco2)cc1	i	x
O=C(O)CCC(=O)N1CCN(c2ccc(C(=O)c3ccc(F)cc3)cc2)CC1	i	>57
O=C(CSc1nnc(-c2ccccn2)n1Cc1ccco1)c1ccc(Cl)cc1	i	x
CCN(CC)S(=O)(=O)c1cccc(-c2nnc(SCC(=O)c3ccc(Cl)s3)n2C)c1	i	>57
CCP(=O)(CC)c1cccc(N)c1	i	>57
CCOC(=O)c1c(N=CN(C)C)c(C#N)n2c1CCC2	i	x
COC(=O)c1c(NC(=O)CC2NCCNC2=O)sc2c1CCCC2 (stereo not given)	i	>57
Cc1onc(-c2c(F)cccc2Cl)c1C(=O)OCC(=O)NCc1ccco1	i	>57
O=C(CC1Oc2ccccc2NC1=O)NC1CCCC1 (stereo not given)	i	x
Cc1c(C)c2c(C)[nH]nc2oc1=O	i	>57
CCc1c(C)nc2ncnn2c1N1CCCC(C(=O)NCCc2ccc(OC)cc2)C1 (stereo not given)	i	>57
CCOC(=O)c1[nH]c2c(c1C)C(=O)CC(c1ccc(N(C)C)cc1)C2 (stereo not given)	i	x
Cn1cc(C(=O)NCCN2CCN(c3ccccc3F)CC2)c2c3ccccc3n(C)c2c1=O	i	>57
CCN(CCCNC(=O)C1CCN(S(=O)(=O)CC)CC1)c1ccccc1	i	>57
Cc1n[nH]c(C)c1S(=O)(=O)N1CCCC(C(=O)NCc2cccs2)C1 (stereo not given)	i	>57
COc1cccc(C(=O)Nc2ccc(NC(=O)c3ccco3)nc2)c1	i	>57
Cc1ccc2c(c1)CN1CN2Cc2cc(C)ccc21	i	x
Cc1ccc(-c2nn3c(-c4cccc(Cl)c4)nnc3s2)cc1	x	>26
COc1ccc(OCCC(=O)N2CCCCC2)cc1	i	>57
COc1ccc(-c2cc(C(F)(F)F)n3ncc(C(=O)O)c3n2)cc1OC	i	>57
CCOC(=O)c1[nH]c2ccc(OCC)cc2c1NC(=O)CN1CCN(c2ccccn2)CC1	i	>57
CN1CCC(OC(c2ccccc2)c2ccccc2)CC1	i	x
CCOc1ccc2nc(NCCNC(=O)C(C)C)c(C)cc2c1	i	x
O=C(CSc1nnc(CNC(=O)c2ccco2)o1)c1ccc(Cl)cc1	i	x
CCCc1cc(=O)[nH]c(/N=C(\N)Nc2ccccc2)n1	i	>57
CCc1noc(C)c1C(=O)Nc1ncc(C)s1	i	>57

Carrying on.
smiles	YjeE inh	PK Bst
CN1CCN(C(=O)c2cnn(-c3ccccc3)c2NC(=O)c2ccccc2F)CC1	i	>57
COc1ccc(CNC(=O)CCc2c(C)nc3ncnn3c2C)cc1	i	>57
COc1ccccc1N1CCN(S(=O)(=O)c2cnc[nH]2)CC1	i	x
COCCn1c(=O)c(-c2cccc(C#N)c2)nc2cnc(Oc3cccc(Cl)c3)nc21	i	x
Cc1ccc(-c2ccc(=O)n(CCC(=O)NCc3ccccn3)n2)cc1	i	>57
COc1cc(NC(=O)C2CCN(S(=O)(=O)c3cccnc3)CC2)cc(OC)c1OC	i	>57
CC(=O)Nc1cnc(NC(=O)c2cccc(F)c2)cc1C	i	>57
O=c1cc(-c2ccccc2)oc2cc(O)cc(O)c12	i	x
COc1cccc(C(=O)CSc2nnc(CNc3nc(-c4ccccc4)cs3)n2C)c1	i	>57
COC(=O)N1CCC2(CCCN(C(=O)Nc3cccc(F)c3)C2)CC1	i	x
CS(=O)(=O)Nc1cccc(-c2nc(N3CCOCC3)c3ccccc3n2)c1	i	x
CCN(CC)c1ccc(NC(=O)c2c(OC)cccc2OC)c(C)c1	i	>57

Full records, quoted from the list. Screens in order: YjeE inh	PK Bst
COc1ccc(CNC(=O)CCc2c(C)nc3ncnn3c2C)cc1 is listed as i	>57
CS(=O)(=O)Nc1cccc(-c2nc(N3CCOCC3)c3ccccc3n2)c1 is listed as i	x

Other records follow:
smiles	YjeE inh	PK Bst
COc1cccc(C2CC(c3c(F)cccc3Cl)n3nc(N)nc3N2)c1 (stereo not given)	i	>57
Cn1c(=O)cc(OCC(=O)NCCCN2CCN(Cc3ccccc3)CC2)c2ccccc21	i	x
COc1ccc(-c2nc(CS(=O)CC(=O)NCc3cccnc3)c(C)o2)cc1OC (stereo not given)	i	x
Cc1cccc(N2CCN(C(=O)CSCc3c(C)noc3C)CC2)c1C	i	>57
COc1ccc(C2CC(=O)C3=C(C2)Nc2ncnn2C3c2ccccc2)cc1 (stereo not given)	i	>57
CCn1c(CNC(=O)c2ccc(OC)c(OC)c2)nnc1SCC(=O)Nc1ccccc1	i	>57
CCOc1ccc(C(=O)OCC(=O)Nc2nc(OC)cc(OC)n2)cc1OCC	i	>57
CCC1CCCCN1Cc1nc2c(c(=O)n(C)c(=O)n2C)n1CC(C)C (stereo not given)	i	x
CCOC(=O)C1CCN(C(=O)CN(c2ccc3c(c2)OCO3)S(C)(=O)=O)CC1	i	>57
CC1(C)Cc2ccccc2-c2nc(NCCO)n(-c3ccccc3)c(=O)c21	i	x
Cc1cc(C)cc(CC2CC(=O)N(c3cc(C)on3)C2=O)c1 (stereo not given)	x	>26
CCCCn1c(Cc2ccccc2)n[nH]c1=S	i	>57
O=C(NCc1ccc2c(c1)OCO2)c1ccc(-n2cnnn2)cc1	i	>57
COc1ccc(C(CNC(=O)c2ccc(OCC3CCCO3)cc2)N2CCOCC2)cc1 (stereo not given)	i	>57
CCOC(=O)c1cc2occc2n1CC(=O)N1CCCc2ccccc21	i	>57
CCOC(=O)CCc1cccc2c1CCC2=O	i	>57
CCC(C)Sc1nc2c(c(=O)[nH]c(=O)n2C)n1C (stereo not given)	i	>57
COc1ccccc1NC(=O)C1=C(C)NC2=C(C(=O)CCC2)C1c1ccc2c(c1)OCO2 (stereo not given)	i	>57
O=C(O)CCC(=O)c1c[nH]c2ccccc12	i	>57
CCN(CC)S(=O)(=O)c1ccc2oc(C(=O)O)c(C)c2c1	i	>57
O=C(NCc1ccccc1)C(c1cccnc1)N(Cc1ccco1)C(=O)c1ccccn1 (stereo not given)	i	>57
NC1=C2NC=N[C@@H]2N(C/C=C\c2ccccc2)C=N1	i	x
CC(OC(=O)c1cccc(NS(C)(=O)=O)c1)C(=O)Nc1ccc(N2CCOCC2)cc1 (stereo not given)	i	>57
CCOc1ccc(NC(=O)C/C(N)=N/O)cc1	i	>57
CC1CCCCN1CCNC(=O)c1ccc2c(=O)n(CCc3ccccc3)c(=O)[nH]c2c1 (stereo not given)	i	>57
CCCOn1c(OCC(C)C)nc2ccccc2c1=O	i	>57
O=C(CSc1ncnc2nc[nH]c12)N1CCN(c2ccccc2)CC1	i	>57
Cc1c(-c2ccccc2)nc(N)c(C#N)c1-c1ccco1	i	>57
Cc1ccc(OCC(=O)O)c(-n2nc3ccccc3n2)c1	i	x
Cc1ccc(-c2nnc3c4ccccc4c(C)nn23)cc1S(=O)(=O)N1CCN(CCO)CC1	i	x
CCOC(=O)C1CCCN(C(=O)CN(c2ccc(OC)cc2)S(=O)(=O)c2c(C)noc2C)C1 (stereo not given)	i	x
CCc1ccccc1N(CC(=O)N1CCN(c2ccccc2F)CC1)S(C)(=O)=O	i	>57
Cn1c(=O)cc(OCC(=O)NCCCN2CCN(c3ccccc3F)CC2)c2ccccc21	i	>57
CCOc1ccc(C2CC(c3ccc(CC)cc3)Nc3nc(N)nn32)cc1 (stereo not given)	i	x
O=C(CCc1nc2ccccc2c(=O)[nH]1)NC1CCN(Cc2ccccc2)CC1	i	>57
O=C(c1cc(C(F)(F)F)cc(C(F)(F)F)c1)N1CCC2(CCCN(c3ncccn3)C2)CC1	i	x
CCOC(=O)c1c(NC(=O)c2cc(C3CC3)on2)sc(C(C)=O)c1C	i	x
CN(C)CCC(c1ccc(Cl)cc1)c1ccccn1 (stereo not given)	i	x
CC(=O)N1CCc2[nH]c3ccccc3c2C1	i	>57
O=C(NCc1cccnc1)c1ccc2c(=O)n(CCCN3CCCC3=O)c(=S)[nH]c2c1	i	>57
COc1ccc(-n2c(=O)c(-c3ccc(F)cc3)nc3cnc(N4CCOCC4)nc32)cc1	i	x
CCOCCCNC(=O)c1cc2c(-c3ccc(Cl)cc3)nn(C)c2s1	i	x
CC(=O)c1oc2ccccc2c1N	i	>57
CSc1nc2[nH]c3c(c2c2ncnn12)CCCC3	x	0.42*
O=C1C2C3C=CC(C3)C2C(=O)N1c1ccccc1 (stereo not given)	i	x
CC(CO)(CO)Nc1ncnc2ccccc12	i	x
Cc1ccccc1-c1nc(Cc2ccccc2)no1	i	x
COc1cccc2c1[C@@H]1CN(CCCCn3c(=O)[nH]c4c(sc5ncc(-c6ccccc6)nc54)c3=O)C[C@H]1CO2	i	x

2 entries drawn at random from those above:
smiles	YjeE inh	PK Bst
Clc1ccc2c(c1)c1ccccc1n2CN1CCOCC1	i	>57
FC(F)(F)c1cc(CO[C@H]2CCCN[C@H]2c2ccccc2)cc(C(F)(F)F)c1	i	x

(cont.)
smiles	YjeE inh	PK Bst
COc1ccc(C2CC(=O)c3cnc(N)nc3C2)c(OC)c1 (stereo not given)	i	>57
O=C(COC(=O)c1n[nH]c2ccccc12)NC(=O)NC1CCCCC1	i	>57
O=C1CC(N2CCC(c3nc4ccccc4o3)CC2)C(=O)N1c1ccc(Cl)c(C(F)(F)F)c1 (stereo not given)	i	>57
CCOC(=O)N1CCN(S(=O)(=O)c2ccc(F)c(C(=O)Nc3cc(C)cc(C)c3)c2)CC1	i	>57
CCOC(=O)c1ccc(-n2c(=S)sc3c(=O)[nH]c(C)nc32)cc1	i	>57
O=C(CSc1nccn1-c1ccc(Cl)cc1)Nc1ccc2c(c1)OCO2	i	>57
COC(=O)CSc1nnc(-c2cccnc2)n1-c1cc(OC)cc(OC)c1	i	>57
COc1ccc(-n2c(=O)c(-c3ccc(F)cc3)nc3cncnc32)cc1	i	x
CNC(=O)CN(C#N)c1nc(N(C)C)nc(N(C)C)n1	i	>57
